Calb FLC: C. albicans growth inhibition with fluconazole, primary screen, CaCi-2 strain, Alamar Blue fluorescence. C. albicans CaCi-2 (fluconazole-resistant clinical isolate) + fluconazole, 48 h. growth inhibition, % (concentration not given with the values). 300,000 tested, 0.57% active. AID 1979, 2009;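 active means most replicates above 75%; inconclusive means exactly half above 75%; inactive means most below 75%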;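 further: all wells also contain fluconazole at 8 µg/ml as a sub-toxic cotreatment; 0% = median of DMSO wells and 100% = median of geldanamycin control wells; wells of about 8 µL received 7.5 nL stock; the first replicate is given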
ALR inh: inhibitors of human ALR sulfhydryl oxidase, primary screen, biochemical, H2O2 detection, HRP-luminol luminescence, single point | FAD-linked sulfhydryl oxidase ALR (Homo sapiens), P55789 | purified ALR, DTT oxidation | inhibition, % (concentration not given with the values) | 290,000 tested, 3.8% active;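 active means mean and each replicate at 75% or more; inconclusive means only one of the two met; inactive means neither met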;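 further: stock transfer was 7.5 nL into about 7.5 µL; 0% = neutral wells and 100% = wells with inactivated enzyme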
Vif TR-FRET: inhibitors of Vif binding to APOBEC3G peptide, primary screen, biochemical, TR-FRET, GST-Vif 1-94, biotin-A3G peptide, dose response retest (AID 1117319) | Virion infectivity factor (Human immunodeficiency virus type 1 group M subtype B (isolate … | inhibition, %, or IC50 in µM where a hit was titrated | 260,000 tested, 0.57% active | TR-FRET GST-Vif / biotin-A3G peptide binding; higher % means a stronger effect; test concentration not given here; strong numbers were not always called active;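 active means above the screen mean plus three standard deviations and confirmed in dose response; inconclusive means results disagree or hit not tested in dose response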;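 further: Vif residues 1-94 fused to GST binding biotinylated APOBEC3G peptide 110-148; 0% = full assay without inhibitor and 100% = GST in place of GST-Vif; retest series ran down from 100 µM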
B2AR ag: beta2AR agonists driving receptor internalization, primary screen, cell-based, FAP fluorogen, flow cytometry; Beta-2 adrenergic receptor (Homo sapiens), P07550; Am2.2-beta2AR cells; reference of the scale not given here; response, % (no concentration beside the values); 340,000 tested, 0.43% active; AID 504454, 2011;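 active means response above a set limit, near 3 SD of response in nonfluorescent compounds, cut at about 42% in these data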;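 further: stock transfer was 100 nL into about 11 µL; a reference agonist was the positive control; negative values mostly stem from fluorescent compounds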
LANA-H2A inh: blockers of LANA interaction with H2A/H2B – biochemical, FP readout, HTS, primary screen | cell-free LANA-H2A/H2B peptide, fluorescence polarization | inhibition, % (no concentration beside the values) | 320,000 tested, 0.6% active | AID 2629, 2010; in the data active means inhibition mostly above about 10%, no sharp cut-off; inactive means mostly below about 6.7%;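 further: stock transfer was 7.5 nL into about 10 µL; 0% = median of vehicle wells and 100% = median of positive control wells; one replicate is shown; the record names a cut of 25% in any replicate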
Target sequence (Q9QR71 whole entry, looked up): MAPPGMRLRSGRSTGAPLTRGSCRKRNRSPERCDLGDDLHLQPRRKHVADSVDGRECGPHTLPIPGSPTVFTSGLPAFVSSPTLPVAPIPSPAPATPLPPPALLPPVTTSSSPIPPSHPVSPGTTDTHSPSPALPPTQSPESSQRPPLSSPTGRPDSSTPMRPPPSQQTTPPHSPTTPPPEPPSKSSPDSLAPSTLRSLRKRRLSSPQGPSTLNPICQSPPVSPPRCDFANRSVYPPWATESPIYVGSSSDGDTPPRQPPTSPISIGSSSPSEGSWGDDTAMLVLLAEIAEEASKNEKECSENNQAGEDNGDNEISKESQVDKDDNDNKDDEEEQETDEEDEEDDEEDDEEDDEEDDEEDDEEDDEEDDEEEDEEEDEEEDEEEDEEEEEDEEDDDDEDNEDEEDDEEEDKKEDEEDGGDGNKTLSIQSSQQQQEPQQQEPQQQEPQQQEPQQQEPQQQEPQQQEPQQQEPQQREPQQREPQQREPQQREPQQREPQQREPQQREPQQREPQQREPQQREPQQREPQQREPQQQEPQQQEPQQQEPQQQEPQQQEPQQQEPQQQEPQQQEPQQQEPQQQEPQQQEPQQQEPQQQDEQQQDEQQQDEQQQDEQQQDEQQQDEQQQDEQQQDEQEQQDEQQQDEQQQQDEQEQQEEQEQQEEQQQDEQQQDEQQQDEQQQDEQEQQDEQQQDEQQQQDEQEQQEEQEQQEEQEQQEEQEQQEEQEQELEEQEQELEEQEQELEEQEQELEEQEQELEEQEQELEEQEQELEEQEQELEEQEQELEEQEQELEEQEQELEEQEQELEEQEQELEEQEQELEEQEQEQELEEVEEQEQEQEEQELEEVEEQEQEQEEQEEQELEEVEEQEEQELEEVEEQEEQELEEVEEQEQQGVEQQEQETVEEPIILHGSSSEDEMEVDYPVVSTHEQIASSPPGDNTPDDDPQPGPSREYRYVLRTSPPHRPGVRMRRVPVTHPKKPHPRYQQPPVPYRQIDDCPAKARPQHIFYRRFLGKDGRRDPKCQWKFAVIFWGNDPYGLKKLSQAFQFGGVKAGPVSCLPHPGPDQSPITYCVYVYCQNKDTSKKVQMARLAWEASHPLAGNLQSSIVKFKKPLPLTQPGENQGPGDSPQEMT
HNF4A DNA FP: change in binding of human HNF4A to DNA, primary screen, biochemical, fluorescence polarization, FITC-DNA; 1 h; 360,000 tested, 0.3% active; Hepatocyte nuclear factor 4-alpha (Homo sapiens), P41235; activity change, % at 10 µM; in the data active means activity change above about 30%, passing the limit was not always enough;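 further: controls were the assay level and a saturating level of protein; the project sought stronger binding though the title names inhibitors; some compounds called inactive have numbers as strong as hits; positive values seem to mean higher polarization but the record does not say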
RanGTP-Impb inh: inhibitors of RanGTP-importin-beta interaction, primary screen, biochemical, FRET, CFP-Ran, YFP-importin-beta, homogeneous | cell-free CFP-Ran/YFP-importin-beta FRET ratio | inhibition, % (concentration not given with the values) | 300,000 tested, 1.1% active | AID 2216, 2009;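 active means most replicates above 15%; inconclusive means exactly half above 15%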;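 further: 0% = DMSO wells and 100% = Ran loaded with GDP instead of GTP; wells of about 40 µL received 100 nL stock; the first replicate is given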
* marks the source's active call; other numbers are inactive results; u = inconclusive; x = not tested or not shown; & = joins results of further samples.

Value order: Calb FLC	ALR inh	Vif TR-FRET	B2AR ag	LANA-H2A inh	HNF4A DNA FP	RanGTP-Impb inh
COc1ccc(/C=N/NC(=O)Cn2cnc3c2c(=O)n(C)c(=O)n3C)cc1
 : 0	-2	3%	-2	-6.3	-1.1	0.0
CC(=O)c1ccc(NC(=O)/C(=C\c2ccccc2)NC(=O)c2ccco2)cc1
 : 7	-1	-5%	-2	5.0	-0.6	-0.6
COc1cc2c(cc1OC)CN(Cc1ccc(F)cc1)CC2
 : 1	0	-2%	-3	-8.7	1.2	9.6
NC(=O)C1CCN(CC(=O)NCc2ccccc2)CC1
 : -1	-3	3%	5	1.9	2.0	3.6
COc1cc(NC(=O)Cn2ncc3c2-c2ccccc2OC3)cc(OC)c1OC
 : -3	-30	-4%	4	-0.1	-3.6	8.7
Cc1nc2ccccc2n1/C(=N/S(=O)(=O)c1ccc(Br)cc1)c1ccccc1
 : -3	1	7%	x	2.2	x	-0.7
Cc1cc2nc(SCCOC(=O)Nc3cccc(Cl)c3)nc(C)c2cc1C
 : x	0	0%	4	-1.8	-7.3	x
O=C(COc1cccnc1[N+](=O)[O-])N1CCN(S(=O)(=O)c2ccc3ccccc3c2)CC1
 : -6	-6	-17%	-7	1.8	-4.1	1.0
S=C(NC1CC1)SCc1ccco1
 : x	63	x	3	1.7	-2.0	x
Cc1cc(OCC(=O)c2ccc(Br)cc2)ccc1N1C(=O)CCC1=O
 : 3	-9	-3%	-3	-4.2	4.5	-1.2
O=C(CCn1cccn1)N1CCCC(N2CCN(c3cccc(Cl)c3)CC2)C1 (configuration not stated)
 : 7	93*	x	5	-41	-0.5	0.5
O=C(O)CCCCNCc1ccccc1
 : -4	-6	-3%	-3	-0.2	2.5	-3.3
Cc1cc(C=C2C(=O)c3ccccc3C2=O)c(C)n1-c1ccc(C(=O)O)cc1
 : -14	64	u	-3	-2.9	2.8	3.9
O=C(CN1CCN(c2ccc(O)cc2)CC1)N(C1CC1)C1CCS(=O)(=O)C1 (configuration not stated)
 : x	99*	-12%	-2	-0.5	6.5	x
C(=N\Nc1ccc2nncn2n1)/c1ccco1
 : 1	25	14%	2	-5.9	1.5	0.4
COc1ccc2c(c1)C(NC(C)=O)C(=O)N2CCc1ccccc1 (configuration not stated)
 : 3	x	4%	-6	-7.2	3.0	5.5
CCOC(=O)C1(Cc2ccccc2)CCN(Cc2cccn2-c2cccnc2)CC1
 : 0	0	4%	-9	0.5	1.1	6.0
O=[N+]([O-])c1ccc(Oc2cccc3cccnc23)c([N+](=O)[O-])c1
 : 27	-3	29%	-4	4.6	3.4	-13
O=C(Nc1ccccc1)c1cc(-c2ccccc2Cl)no1
 : -31	x	2%	0	8.8	1.5	1.1
O=[N+]([O-])c1cccc(COc2ccc(CN3CCCCC3)cc2)c1
 : x	x	3%	-12	x	0.9	x
COC(=O)C1(O)CC(C(C)C)=NN1C(=O)c1ccccc1 (configuration not stated)
 : 0	25	x	1	4.7	1.0	-0.2
CCN(CC(=O)Nc1c(F)cccc1F)C(=O)Cc1ccc2c(c1)CCC2
 : -1	26	-3%	3	-6.2	-2.1	-0.9
COc1ccc(C(=O)Nc2ccc(S(=O)(=O)Nc3cc(C)nc(C)n3)cc2)cc1OC
 : -16	2	x	2	8.6	20	u
COc1ccc2oc(C(=O)OC(C)C(=O)Nc3ccc(N4CCOCC4)cc3)c(C)c2c1 (configuration not stated)
 : x	7	-5%	-2	-4.1	-1.7	x
COCCNC(=O)c1cc(-c2ccccn2)nc2ccc(S(=O)(=O)N3CCC(C)CC3)cc12
 : -1	1	x	0	0.2	0.8	-3.7
CCC(C)NC(=O)C1c2ccccc2Oc2ccccc21 (configuration not stated)
 : -10	x	x	-2	3.9	-4.8	2.5
O=C1NC2(CCCCCC2)C(=O)N1Cc1ccc(Cl)cc1Cl
 : -3	-2	5%	-2	1.0	-1.4	1.2
COc1cc(CNc2nnnn2C)ccc1OCc1c(F)cccc1Cl
 : 44	-8	-12%	-1	-3.6	-1.0	-2.8
CCN1CCN(Cc2c(O)ccc3c(=O)c(-c4ccccc4OC)coc23)CC1
 : -1	-4	-11%	-4	5.4	0.8	0.7
COc1ccc(NC(C)=O)cc1NC(=O)CN1CCN(C(=O)c2ccco2)CC1
 : 27	-4	9%	2	-1.1	1.6	4.6
Cc1c(N(C)S(=O)(=O)c2cc(C(=O)N3CCCC3)ccc2Cl)c(=O)n(-c2ccccc2)n1C
 : 2	-3	x	-4	0.7	1.3	3.1
CC(CC1C(C#N)=C(N)SC(N)=C1C#N)c1ccccc1 (configuration not stated)
 : -3	25	3%	15	-9.9	74	4.3
CCC(CC)C(=O)Nc1cccc(S(=O)(=O)c2cccc(NC(=O)C(CC)CC)c2)c1
 : 17	9	0%	14	0.6	-2.3	u
CC(C)CCNC(=O)c1cc2c(=O)n3ccccc3nc2s1
 : 15	2	4%	-8	-4.6	0.2	u
CCN(CC(=O)Nc1ccc(NC(C)=O)cc1)C(=O)c1cc2c(s1)CCCCC2
 : x	x	-1%	-7	-0.4	-2.6	x
CC(C)(C)c1ccc(C(=O)c2c[nH]c(C(=O)NCc3ccco3)c2)cc1
 : 12	2	1%	2	-1.6	0.2	3.2
O=C(NCC1CCCO1)c1ccccc1NS(=O)(=O)c1cccs1 (configuration not stated)
 : 3	6	x	1	2.5	1.6	1.3
COc1ccc(/C=N/NC(=O)C(=O)N2CCCC2)cc1
 : 17	-1	7%	-1	2.5	3.2	u
Cc1cc(N2CCN(C(=O)/C=C/C(=O)O)CC2)c2ccccc2n1
 : -7	-10	x	5	1.6	-0.9	5.6
CC(C)c1ccc(S(=O)(=O)c2nnn3c2nc(NCC2CCCO2)c2ccccc23)cc1 (configuration not stated)
 : 9	-7	x	-15	0.5	-3.1	3.6

In another format: 3 of the compounds above.
structure	Calb FLC	ALR inh	Vif TR-FRET	B2AR ag	LANA-H2A inh	HNF4A DNA FP	RanGTP-Impb inh
CCC(C)NC(=O)C1c2ccccc2Oc2ccccc21 (configuration not stated)	-10	x	x	-2	3.9	-4.8	2.5
CC(C)CCNC(=O)c1cc2c(=O)n3ccccc3nc2s1	15	2	4%	-8	-4.6	0.2	u
CC(C)c1ccc(S(=O)(=O)c2nnn3c2nc(NCC2CCCO2)c2ccccc23)cc1 (configuration not stated)	9	-7	x	-15	0.5	-3.1	3.6

Later entries:
Value order: Calb FLC	ALR inh	Vif TR-FRET	B2AR ag	LANA-H2A inh	HNF4A DNA FP	RanGTP-Impb inh
O=C(c1ccccc1)N1CCN(C(=O)c2ccc3c(c2)OCO3)CC1
 : -19	-3	x	-1	5.5	1.1	6.4
O=C(Nc1ccc(OC(F)F)c(Cl)c1)Nc1ccc2c(c1)OCO2
 : -17	-4	22%	4	4.2	1.1	1.7
COc1ccc(S(=O)(=O)N2CCN(c3ccccc3OC)CC2)cc1C(=O)N1CCCCC1
 : 11	6	x	1	1.2	-2.0	6.2
O=c1cc(O)c2ccccc2n1Cc1ccccc1Cl
 : 13	-3	-1%	-1	-2.2	-1.1	2.0
Oc1c(/C=N/Nc2cccc3cccnc23)ccc2ccccc12
 : 1	-18	u	-1	-5.9	3.1	u
CC(=O)c1ccccc1NS(=O)(=O)c1ccccc1Cl
 : 34	1	-6%	3	1.6	-0.2	0.4
COc1ccc(C(C)(C)C)cc1NC(=O)COC(=O)c1nc2nccc(C)n2n1
 : x	2	x	9	-2.1	2.0	x
CC1CC(C)CN(c2nc3c(c(=O)[nH]c(=O)n3C)n2CCCSc2nc3ccccc3s2)C1 (configuration not stated)
 : x	x	-12%	-13	x	0.3	x
COCCCNC(=S)Nc1ccc(S(=O)(=O)Nc2cc(OC)nc(OC)n2)cc1
 : -1	-1	x	6	2.3	-1.8	2.4
O=C(CCC(=O)OCC(=O)c1ccccc1)Nc1cccc2cccnc12
 : -8	-6	-2%	-5	-0.2	-4.0	-0.4
O=C(NCc1cccc(Cl)c1)c1ccc2nc(N3CCOCC3)sc2c1
 : 29	1	x	1	-7.9	-2.1	0.4
CC1=C(C(=O)OCC(C)C)C(c2cccc(F)c2)N2C(=O)C(C)SC2=N1 (configuration not stated)
 : -1	-6	7%	-4	8.9	0.7	-3.2
Cc1c(NC(=O)CCC2CCCCC2)c(=O)n(-c2ccccc2)n1C
 : -11	0	-4%	-9	-1.9	-2.4	3.5
Cc1ccc(S(=O)(=O)NCC(=O)OCC(=O)Nc2ncc(Cl)cc2Cl)cc1
 : -2	-2	12%&10%	2	3.3	1.4	-3.1
Cc1ccc(OCC(=O)NNC(=O)C2CCN(c3nccc(C)n3)CC2)cc1
 : 15	-1	-10%	105*	-0.7	3.0	u
CCN(CC)CCNc1nc(-c2cccs2)c(CC(=O)O)s1
 : 27	-14	-4%	3	2.0	2.5	-0.5
COc1cc(/C=N/N2C(=O)c3ccccc3NC2(C)c2cccc([N+](=O)[O-])c2)cc(Br)c1O (configuration not stated)
 : 6	-6	6%	1	5.8	-1.1	4.1
CC(=O)NCCn1c(SCC(=O)NCC2CCCO2)nc2ccccc2c1=O (configuration not stated)
 : 2	-4	u	14	4.5	2.7	2.3
CCOC(=O)c1sc(N(Cc2ccccc2)C(=O)CSc2nnc(C3CC3)n2N)nc1C
 : 12	7	0%	-4	3.4	-0.2	5.9
c1ccc(C2(CNc3ccccn3)CCCC2)cc1
 : -18	-1	2%	22	2.5	1.2	1.6
O=C(Nc1ccccc1)N(Cc1ccccc1)CC(O)C(F)(F)F (configuration not stated)
 : -5	3	25%	-9	-4.9	-0.3	3.4
CSc1nnc(-c2cc(-c3ccc(C)cc3)nc3ccccc23)o1
 : -10	0	-15%	-14	0.9	4.1	13
Cc1ccc2nc(SCC(=O)NC3CCCCC3)nc(=O)n2c1
 : 0	-4	3%	-8	-2.8	1.3	-1.3

ALR inh, entries above that show a hit.
| canonical_smiles | ALR inh | Vif TR-FRET | B2AR ag | LANA-H2A inh | RanGTP-Impb inh |
| --- | --- | --- | --- | --- | --- |
| O=C(CCn1cccn1)N1CCCC(N2CCN(c3cccc(Cl)c3)CC2)C1 (configuration not stated) | 93* | x | 5 | -41 | 0.5 |
| O=C(CN1CCN(c2ccc(O)cc2)CC1)N(C1CC1)C1CCS(=O)(=O)C1 (configuration not stated) | 99* | -12% | -2 | -0.5 | x |

Screening results as filed in PubChem BioAssay.
